# GALR2 agonist: agonists of human galanin receptor 2 (GALR2); O43603; GALR2-expressing cells, agonist activation read-out; activation, %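 (tested at 5 µM)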; hit rate 0.48% among 140,000; AID 803;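 active = above mean plus 3 SD of all compounds, about 5% in these data, not always enough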;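 also: 0% = vehicle buffer wells and 100% = reference agonist at full effect; tested in CHO reporter cells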
# Target sequence (O43603 whole entry, looked up): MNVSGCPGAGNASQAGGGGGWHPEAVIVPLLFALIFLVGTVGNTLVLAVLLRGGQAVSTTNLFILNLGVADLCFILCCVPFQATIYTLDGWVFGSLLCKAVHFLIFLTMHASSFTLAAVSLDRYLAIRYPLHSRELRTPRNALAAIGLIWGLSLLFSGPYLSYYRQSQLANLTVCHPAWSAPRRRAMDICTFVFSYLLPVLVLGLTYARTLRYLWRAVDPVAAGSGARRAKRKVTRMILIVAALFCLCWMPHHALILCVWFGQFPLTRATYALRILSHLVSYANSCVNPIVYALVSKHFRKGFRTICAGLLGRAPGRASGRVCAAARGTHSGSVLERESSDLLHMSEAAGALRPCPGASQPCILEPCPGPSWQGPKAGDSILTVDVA
# RGS16-Gao HTS: RGS16-Galphao interaction regulator (human) | O15492+P09471 | bead-based flow cytometry RGS16-Galphao binding, fluorescence; actives lie on both sides | binding response (% of control), % at 10 µM | hit rate 0.38% among 220,000;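 active = below 25% or above 175%, edge rows of some plates excepted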;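 also: Galphao activated by GDP with aluminum fluoride before binding; 100% = wells without compound and 0% = beads without RGS; some results beyond the cut were filed as inactive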
# Target sequence (O15492 whole entry, looked up): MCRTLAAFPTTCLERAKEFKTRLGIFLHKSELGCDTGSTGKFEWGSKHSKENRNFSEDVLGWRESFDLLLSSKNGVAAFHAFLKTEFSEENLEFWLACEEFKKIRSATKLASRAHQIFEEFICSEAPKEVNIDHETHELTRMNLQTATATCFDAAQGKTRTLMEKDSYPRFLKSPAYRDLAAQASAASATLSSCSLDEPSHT
# Target sequence (P09471 whole entry, looked up): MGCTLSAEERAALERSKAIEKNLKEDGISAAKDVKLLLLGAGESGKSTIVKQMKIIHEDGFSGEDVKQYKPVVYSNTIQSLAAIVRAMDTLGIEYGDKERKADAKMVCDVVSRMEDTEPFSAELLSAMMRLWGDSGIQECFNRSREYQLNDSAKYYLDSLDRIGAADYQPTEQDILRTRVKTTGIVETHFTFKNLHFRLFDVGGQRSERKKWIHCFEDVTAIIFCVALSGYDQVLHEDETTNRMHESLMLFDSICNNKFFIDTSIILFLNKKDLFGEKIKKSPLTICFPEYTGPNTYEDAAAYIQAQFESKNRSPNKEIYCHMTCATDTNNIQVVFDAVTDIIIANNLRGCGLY
# PKD1 kinase inh: inhibitors of human PKD1 kinase. Q15139. PKD1 kinase fluorescence polarization assay. inhibition, %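 (about 10 µM by stock and volumes)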. hit rate 0.056% among 200,000. AID 797;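 active = inhibition of 50% or more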;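 also: controls were vehicle for no effect and a reference inhibitor for full effect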
# HSV augment: HSV replication enhancement | HSV replication augmentation in cells, fold increase | maximum fold increase | hit rate 0.005% among 220,000;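 active = peak rise of 1.5-fold or more in the series; inconclusive = self-fluorescent or not available for retest; tested in PC3 cells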;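 also: first round at 10 µM; read as green reporter fluorescence; hits show the peak of a series up to 25 µM; 1 = signal of infected wells without compound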
# INS promoter inh: TRM-6 insulin promoter activity inhibition. AID 1273. hit rate 0.9% among 130,000. inhibition, % at 2 µM. TRM-6 cells (human fetal islet line), insulin promoter-eGFP reporter, imaging; reporter expression induced with tamoxifen;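 active = inhibition above the mean plus 3 SD, with well images judged a real hit on visual review, cut at about 60% in these data, passing the limit was not always enough; inconclusive = inhibition over the cutoff but images rejected on review; inactive = inhibition not above the cutoff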
# INS promoter inh cell count: further read-out of INS promoter inh, marked with its call; normalized cell count, %; measured here: cell count, toxicity; reference of the scale not given here;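 cells exposed to compound for 48 h; stained nuclei by imaging scaled within each plate; lower means fewer cells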
# HSV augment primary fold: further read-out of HSV augment, marked with its call; fold increase; compound at 10 µM; measured here: primary screen fold increase 10 uM; tested in PC3 cells;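 GFP signal in the first replicate; 1 = infected wells without compound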
# Numbers without * were called inactive; i = inactive; ? = inconclusive; / = not tested or not shown.
SMILES,GALR2 agonist,RGS16-Gao HTS,PKD1 kinase inh,HSV augment,HSV augment primary fold,INS promoter inh,INS promoter inh cell count
O=C(Nc1cccc(Cl)c1)c1ccc2c(c1)SC1=NS(=O)(=O)CCN12,/,107,4,i,1.1,22,73
CC(C)CC1C(C#N)=C(N)Oc2n[nH]c(-c3cccs3)c21 (configuration not stated),4.1,101,22,i,0.67,-33,81
COc1cc(NC(=S)Nc2ncccc2C)cc(OC)c1OC,/,98,6,i,0.93,8,126
CCCC(c1c(C)n(C)n(-c2ccccc2)c1=O)c1c(C)n(C)n(-c2ccccc2)c1=O,-1.2,109,-11,i,1,-3,188
Clc1ccc(CSc2nnc3c(n2)[nH]c2ccccc23)cc1,/,81,/,i,1,/,/
CC(=O)N1CCN(CCN=CC2=C(O)CC(c3cccs3)CC2=O)CC1 (configuration not stated),-1.9,168,-1,i,0.97,11,121
O=C(Nc1cccc(F)c1)c1ccc(Cn2cc([N+](=O)[O-])cn2)o1,/,94,-1,i,0.94,14,70
Cc1ccc(NC(=S)N/N=C/c2cccn2Cc2ccccc2F)cc1,/,102,/,i,1,/,/
Cc1cccc(NC(=O)CSc2nc3c(c(=O)[nH]2)CCC3)c1C,0.7,101,6,i,0.96,/,/
O=[N+]([O-])c1ccc(CSc2nnc(-c3cnccn3)o2)cc1,-3.2,99,-1,i,1,1,122
O=c1cc(N2CCC(Cc3ccccc3)CC2)[nH]c(=O)n1C1CCCCC1,-1.0,101,-16,i,0.94,29,87
O=S(=O)(CCSc1ccccn1)c1nc2ccccc2s1,-3.7,101,3,i,0.86,54,153
O=C(/C=C/c1c(F)cccc1Cl)Nc1nn[nH]n1,/,100,1,i,1.1,/,/
COc1ccc2c(CC(=O)OCC(=O)c3ccccc3OC)coc2c1,-1.5,99,2,i,0.62,10,188
CCOCCCNC(=O)C1CCCCN1S(=O)(=O)c1ccc(F)cc1 (configuration not stated),-1.9,101,-5,i,0.95,-30,118
CCOc1cc(N2CCOCC2)c(OCC)cc1NC(=O)CSc1nccc(C)n1,/,94,1,i,0.93,/,/
Cc1onc(-c2ccccc2Cl)c1C(=O)OCC(=O)c1ccc2c(c1)OCCO2,0.8,102,5,i,0.86,9,67
Cc1c(C(=O)/C=C/N(C)C)nnn1-c1ccc(Cl)c(Cl)c1,/,98,/,i,1.3,/,/
CNCCOCC(O)CSc1ccccc1 (configuration not stated),-1.6,99,6,i,0.98,-21,113
CCOC(=O)COc1nc(-c2ccco2)cc(-c2ccco2)c1C#N,/,106,/,i,1.1,/,/
CCSCCOC(=O)C1=C(C)NC(=O)NC1c1cc(OC)ccc1OC (configuration not stated),-3.4,104,-3,i,1,/,/
CC1=C(C(=O)OCc2ccccc2)C(c2ccccc2)NC(=O)N1CCCCCC(=O)O (configuration not stated),-1.6,95,-7,i,0.87,19,119
CCOC(=O)C1(Cc2cccc(OC)c2)CCN(CC2CC=CCC2)CC1 (configuration not stated),/,101,-3,i,0.89,/,/
CCCn1c(=O)c(Br)cn(-c2ccccc2C)c1=O,/,97,/,i,0.96,/,/
CC(=O)N(CN1C(=O)c2ccc([N+](=O)[O-])cc2C1=O)c1ccc(F)cc1,-0.7,96,-4,i,0.95,/,/
O=C(c1ccc([N+](=O)[O-])cc1)N(Cc1ccc(Cl)cc1Cl)N1C(=O)CCCC1=O,-2.9,99,-3,i,1,-10,63
Cc1cc(C)c(OCC(=O)Nc2nnn(C)n2)c(Br)c1,-0.2,102,-5,i,0.92,-77,79
Cc1nc(SCCC(C)C)c([N+](=O)[O-])[nH]1,0.2,110,2,i,1,-4,86
O=[N+]([O-])c1ccccc1-c1ccc(/C=N/n2cnnc2)o1,-1.3,98,-1,i,0.96,/,/
CCN(CC)C(=O)c1cc2cc(Br)ccc2oc1=O,-2.4,103,2,i,0.99,19,70
COC(=O)c1ccccc1S(=O)(=O)N1CCC(C(=O)OC(C)C(=O)NC(N)=O)CC1 (configuration not stated),/,100,-2,i,1.1,7,109
Cc1ccc(S(=O)(=O)N(C)c2nc3ccccc3[nH]c2=S)cc1,/,92,/,i,0.95,/,/
COC(=O)c1ccccc1S(=O)(=O)N(Cc1cc2ccc(OC)cc2[nH]c1=O)CC1CCCO1 (configuration not stated),-0.2,102,-13,i,1,/,/
CC(=O)c1cc(C#N)c(SCC(=O)OC(C)C)nc1C,-2.4,101,-3,i,0.7,93*,189*
CN(CC(=O)N1CCN(c2ccccn2)CC1)S(=O)(=O)c1ccc2ccccc2c1,-1.6,98,-3,i,0.84,-322,51
CN(C)c1ccc(/C=C/c2ccc3ccccc3n2)cc1,/,123,/,?,/,/,/
CC1CCN(C(=O)CSCc2ccc(Cl)cc2)CC1,-0.8,105,-3,i,1.1,-138,104
CN(C1CCCCC1)S(=O)(=O)c1ccc(-c2ccccn2)s1,/,98,/,i,1,/,/
CCOCC(=O)NCc1ccc2c(c1)OCO2,-0.3,102,-3,i,1,-13,154
O=S(=O)(c1cccc2nsnc12)N1CCN(c2ccccc2F)CC1,/,114,2,i,0.99,/,/

# Overlap with the part before: 7 compounds, then new ones.
SMILES,GALR2 agonist,RGS16-Gao HTS,PKD1 kinase inh,HSV augment,HSV augment primary fold,INS promoter inh,INS promoter inh cell count
CC(=O)c1cc(C#N)c(SCC(=O)OC(C)C)nc1C,-2.4,101,-3,i,0.7,93*,189*
CN(CC(=O)N1CCN(c2ccccn2)CC1)S(=O)(=O)c1ccc2ccccc2c1,-1.6,98,-3,i,0.84,-322,51
CN(C)c1ccc(/C=C/c2ccc3ccccc3n2)cc1,/,123,/,?,/,/,/
CC1CCN(C(=O)CSCc2ccc(Cl)cc2)CC1,-0.8,105,-3,i,1.1,-138,104
CN(C1CCCCC1)S(=O)(=O)c1ccc(-c2ccccn2)s1,/,98,/,i,1,/,/
CCOCC(=O)NCc1ccc2c(c1)OCO2,-0.3,102,-3,i,1,-13,154
O=S(=O)(c1cccc2nsnc12)N1CCN(c2ccccc2F)CC1,/,114,2,i,0.99,/,/
Cc1cc(C)c(S(=O)(=O)NC2CCN(Cc3ccccc3)CC2)c(C)c1,/,101,/,i,0.79,/,/
[O-]/[N+](=C\c1ccccc1)[C@@H]1CCCC[C@@H]1/[N+]([O-])=C/c1ccccc1,-2.5,93,-8,i,0.95,-86,88
O=C(NC(Cc1c[nH]c2ccccc12)C(=O)O)/C(=C\c1ccc2c(c1)OCO2)NC(=O)c1ccccc1 (configuration not stated),/,93,/,i,1,/,/
COc1ccc2nc(NC(=O)CCn3cccc3)sc2c1,-1.1,104,7,i,0.96,-73,106
CCc1sc(C(=O)Nc2cc(Cl)ccc2N2CCCCC2)cc1C,-0.7,98,-2,i,1.1,/,/
Cn1c(CCN2CCOCC2)nc2cc(NS(=O)(=O)c3ccccc3)ccc21,/,92,/,i,1,/,/
COc1ccc(Cn2c(=O)[nH]c3cc(OC)c(OC)cc3c2=O)cc1,/,95,/,i,0.9,/,/
C/C(CC(=O)Nc1cc(Cl)ccc1Cl)=N\NC(N)=S,-1.9,103,-1,i,1.1,7,81
O=C(CN1CCN(S(=O)(=O)c2ccc(F)cc2)CC1)Nc1cccc(C(F)(F)F)c1,-0.7,101,-7,/,/,-36,115
O=[N+]([O-])c1cnn2cc(Br)cnc12,/,110,4,i,0.93,-25,124
COc1ccc(Cl)cc1Nc1nc(NCCO)nc(N2CCCC2)n1,-0.9,100,-4,/,/,-163,119
N#Cc1c(-c2ccc(Br)cc2)cc(-c2cccnc2)nc1N,3.4,104,-7,i,0.74,25,108
CCOc1ccc(NC(=O)CC2C(=O)N(C)C(=S)N2CCCc2ccccc2)cc1 (configuration not stated),-0.1,100,0,i,0.84,0,104
CN(c1ccccc1)c1nc(N)c([N+](=O)[O-])c(NCc2ccccc2)n1,/,107,/,i,0.84,/,/
O=c1oc2cc(OCc3ccc([N+](=O)[O-])cc3)ccc2c2c1CCCC2,-2.2,102,2,i,1,47,60
Cc1cccc(C(=O)Oc2coc(CSc3nnc(NC(=O)C4CC4)s3)cc2=O)c1,-1.5,105,-3,/,/,/,/
CC(=O)c1cnc(N2CCCCC2)nc1C,-1.4,107,2,i,0.85,3,135
Nc1c(S(=O)(=O)c2cccs2)c2nc3ccccc3nc2n1/N=C/c1cccc(O)c1,1.4,113,-4,i,0.73,/,/
Cc1ccnc(NC(=O)CCC(=O)N(CC(=O)NC2CCCCC2)c2cccc(C)c2C)c1,-3.5,100,-2,i,0.85,17,35
CCCCNC(=O)c1onc(CSc2cccc3ccccc23)c1C(=O)O,-1.3,101,2,i,1.1,46,137
CCCCN(CCCC)c1nc2ccccc2nc1C(C#N)C(=O)NCCCOC (configuration not stated),-0.1,103,-6,i,1,-28,81
COc1cnc(SCc2ccc(Cl)c(Cl)c2)nc1Cl,-1.4,99,21,i,0.91,44,100
CCCCCOC(=O)c1cc(=O)[nH]c2ccccc12,-1.0,100,-5,i,0.86,/,/
COc1cccc(-c2nc(-c3ccc4c(c3)-c3ccccc3S4(=O)=O)c(-c3ccccc3)[nH]2)c1OC,2.0,109,1,?,/,50,104
COc1ccc(OC)c(/C=N/NC(=O)c2cnccn2)c1,/,107,/,i,0.87,/,/
Cc1ccc(-c2csc(Nc3ccc(S(N)(=O)=O)cc3)n2)o1,/,96,1,i,1.1,-14,81
N#CC(C#N)=C(N)Nc1cccc(Cl)c1,/,94,/,i,1.1,/,/
O=C(/C=C/c1ccccc1)NNC(=O)C1CC1,-1.0,/,-7,i,1,-18,61
COCCCn1c(SCC(=O)NC(C)(C)C)nnc1-c1ccccc1,0.9,99,-9,/,/,/,/
Cc1oc(-c2ccc(-c3ccccc3)cc2)nc1CN(C)C1CCOC1 (configuration not stated),/,99,3,i,0.96,/,/
CC(C)CC(=O)OCc1cn(-c2ccccc2)nn1,-1.4,102,-9,i,0.84,/,/
Cc1ccc2c(c1)[nH]c1c(=O)n(CCN3CCCCC3)cnc12,1.4,109,-3,i,0.88,0,105
OC(c1ccc(Cl)cc1)C(O)c1nc2ccccc2[nH]1 (configuration not stated),-1.3,303,3,i,0.71,-24,113
Cn1c(=O)c2c(ncn2CC(=O)N2CCOCC2)n(C)c1=O,-1.6,101,-6,i,0.97,-22,87
O=C1C2C3CCC(C3NCc3ccccc3)C2C(=O)N1Cc1ccccc1 (configuration not stated),0.0,98,-13,i,0.91,/,/
Nc1ccc(C(=O)NCC2(c3ccccc3)CCCC2)cc1,/,98,2,i,1.2,33,56
CCOC(=O)CNc1nc(Cl)nc(Nc2ccc(C)cc2)n1,/,90,/,i,0.99,/,/
COc1ccc(C(=O)NCCn2cc(SCC(=O)Nc3nnc(C)s3)c3ccccc32)cc1,-2.2,99,-4,i,0.84,-94,116
CCCCN1CC2([N+](=O)[O-])C=CC(=O)C([N+](=O)[O-])(C1)C2CC(=O)c1ccccc1 (configuration not stated),-1.8,100,-5,i,1,-30,62
CNc1nc(-c2ccccc2)cc(C(F)(F)F)c1C#N,-0.1,103,-6,i,0.97,-25,99
S=C(NCc1ccco1)Nc1ccc2c(c1)OCCO2,/,102,4,i,1.1,-21,68
CC(=O)NCC1CCCN(c2nc3nonc3nc2N(C)Cc2ccccc2)C1 (configuration not stated),/,102,1,i,1,/,/
Cc1ccc(Nc2nc(-c3cccnc3)nc3ccccc23)cc1,/,114,/,i,0.78,/,/
O=C(O)CCC(=O)Nc1ccc(Br)cc1C(=O)c1ccccc1,/,96,/,i,0.89,/,/
COC(=O)Cc1ccc(NC(=O)c2ccccc2Br)cc1,/,24*,-5,i,1.1,/,/
CCOc1ccc(C(=O)N/N=C/c2ccccc2[N+](=O)[O-])cc1,0.1,108,3,i,0.81,-8,138
O=C(NC(=S)Nc1ccc(CN2CCCCC2)cc1)c1cccc(OCc2ccccc2)c1,/,103,-4,i,0.82,/,/
O=S(=O)(NCc1ccncc1)c1ccccc1,-0.7,96,5,i,0.93,-26,146
CCOC(=O)c1c(N)n(-c2ccc(N)cc2)c2nc3ccccc3nc12,-2.0,100,-8,i,0.97,-29,75
CCOC(=O)C1=C(C)N(c2ccc(OC)cc2)C(=O)/C1=C\c1cccs1,-0.5,71,-18,i,0.98,-17,98
COc1ccc(C(=O)NC(Cc2ccccc2)c2ccc3c(c2)OCCCO3)cc1 (configuration not stated),-1.6,98,5,i,0.95,-3,65
COc1ccccc1OCC(=O)N(Cc1nc(-c2ccccc2)no1)C1CCCCC1,-0.3,100,-6,i,0.79,-35,142

# Screens from PubChem BioAssay.
